Mtb betalactam: beta-lactam sensitization of Mtb H37Rv, H37Rv; actives 0.27% (n = 330,000); M. tuberculosis H37Rv growth with meropenem, percent inhibition; hits of this screen are not shown here; inhibition, % at 25 µM;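 active = about 74% or more and at least 40 points above the plate without the antibiotic, then above 30% in a dose series; inconclusive = first-round hits that could not be retested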;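 note: growth measured after seven days incubation then overnight dye step; 0% = bacteria only wells and 100% = bacteria with antibiotic; twin plates without the antibiotic show which effects depend on it; some results filed as inactive read as strong as hits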
YopH inh: YopH tyrosine phosphatase inhibitors, primary screen, biochemical, fluorescence Ex485/Em525. YopH tyrosine phosphatase [Yersinia enterocolitica]. inhibition, %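 (about 10 µM by stock and volumes)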. actives 0.16% (n = 140,000);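 active = inhibition of 50% or more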;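 note: controls were vehicle for no effect and minimum signal wells for full effect; inactives centre near -20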
RecA splice inh: Mtb RecA intein splicing inhibitors, primary screen, biochemical, fluorescence, HTS; Protein RecA (Mycobacterium tuberculosis (strain ATCC 25618 / H37Rv)), P9WHJ3; cell-free RecA intein splicing; inhibition, %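 (about 9 µM by stock and volumes)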; actives 0.75% (n = 290,000); AID 2221, 2009; in the data active = inhibition above about 30%; inconclusive = no clear call, values can overlap the other calls;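 note: 0% = vehicle wells and 100% = reference inhibitor control wells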
Target sequence (P9WHJ3 whole entry, looked up, canonical isoform): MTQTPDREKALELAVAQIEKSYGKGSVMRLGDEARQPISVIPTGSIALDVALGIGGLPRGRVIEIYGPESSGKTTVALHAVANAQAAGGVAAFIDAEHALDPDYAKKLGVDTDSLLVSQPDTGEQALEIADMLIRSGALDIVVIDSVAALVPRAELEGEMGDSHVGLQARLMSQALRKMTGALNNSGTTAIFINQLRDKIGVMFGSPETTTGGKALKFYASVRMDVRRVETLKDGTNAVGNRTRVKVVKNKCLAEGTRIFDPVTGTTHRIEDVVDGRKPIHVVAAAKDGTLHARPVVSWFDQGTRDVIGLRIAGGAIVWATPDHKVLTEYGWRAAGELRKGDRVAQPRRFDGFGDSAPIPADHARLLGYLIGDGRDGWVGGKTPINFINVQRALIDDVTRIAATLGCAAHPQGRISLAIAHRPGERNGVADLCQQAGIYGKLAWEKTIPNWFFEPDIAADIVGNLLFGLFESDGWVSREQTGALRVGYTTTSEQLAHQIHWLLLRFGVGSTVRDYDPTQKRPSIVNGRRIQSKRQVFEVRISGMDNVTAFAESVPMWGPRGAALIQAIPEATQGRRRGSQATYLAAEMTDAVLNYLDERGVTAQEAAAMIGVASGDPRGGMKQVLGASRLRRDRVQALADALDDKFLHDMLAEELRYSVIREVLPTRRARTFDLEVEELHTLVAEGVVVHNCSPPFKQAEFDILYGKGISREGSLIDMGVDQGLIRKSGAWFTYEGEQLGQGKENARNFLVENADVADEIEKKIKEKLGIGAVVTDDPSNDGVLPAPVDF
Arbovirus anti: antivirals against arbovirus infection, primary screen, cell-based, full library, 10K replicate subset. inhibition, % at 10 µM. actives 0.37% (n = 200,000). AID 1251, 2008. arbovirus infection cell-based antiviral screen;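 active = inhibition from about 30%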;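 note: bluetongue infection of BSR cells; cell survival read as ATP light after 72 h; 0% = infected wells without compound and 100% = uninfected wells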
Mtb H37Rv: M. tuberculosis H37Rv growth inhibitors, H37Rv strain (AID 1626). M. tuberculosis H37Rv growth inhibition; higher % means a stronger effect. inhibition, % at 10 µM; hits with a dose series show IC50 in µM. actives 0.95% (n = 220,000);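 active = confirmed in a dose series; inconclusive = inhibition above 80% but not taken into the dose series; inactive = below 80% or under 30% at every dose of the series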;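 note: bacteria incubated seven days before Alamar blue readout; 0% = bacteria only wells and 100% = bacteria with antibiotic wells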
Arbovirus anti repeat: second read-out of Arbovirus anti, no call of its own (marks repeat the call); inhibition, %; measured here: 10K subset replicate screen; many hits read low in the repeat;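 first of two repeat runs on a subset; 0% = infected and 100% = uninfected wells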
Active calls of the source: *; ? = inconclusive; / = not tested or not shown. Only part of the results is shown; rates above refer to the full screens.

SMILES | Mtb betalactam | YopH inh | RecA splice inh | Arbovirus anti | Mtb H37Rv | others
O=C(Cc1ccccc1[N+](=O)[O-])NCCCN1CCOCC1 | -9.6 | / | 0.2 | 1.7 | -1.7%
Cc1c(C#N)c(NC(=O)C(C)C)n(Cc2ccccc2)c1C | 5.0 | / | 0.6 | 6.8 | 4.0%
COC(=O)c1ccc(Oc2nc(Nc3ccc(C)c(C)c3)nc(N(C)C)n2)cc1 | 50.2 | -4.6 | 0.8 | 18.6 | 13.7%
O=C(Cn1cnc2ccccc2c1=O)Nc1ccc2c(c1)CCC2 | 5.0 | -38.4 | 6.1 | 6.4 | 1.2%
COc1cccc(C2c3[nH]c4ccccc4c3C[C@H]3C(=O)N(c4ccccc4C(=O)N4CCCC4C(=O)O)C(=O)N23)c1 (some centres not stated) | -2.6 | / | -6.0 | / | /
O=C(Nc1ccc2nc(-c3cccnc3)[nH]c2c1)C12CC3CC(CC(C3)C1)C2 | -3.5 | -13.5 | -1.6 | -32.5 | 8.2%
CCCn1[nH]cc(SC)c(=O)c1=O | 10.7 | -25.9 | -2.8 | -0.8 | 0.3%
CN(C)c1cc(-c2ccc(Br)cc2)oc(=O)c1Cl | 7.0 | / | -0.9 | / | -1.2%
c1ccc(Nc2nc(-c3ccccn3)cs2)cc1 | 99.1 | 1.9 | 1.2 | -1.5 | 0.376µM*
Cc1ccc(OCc2nnc(SCC(N)=O)n2N)cc1 | -5.3 | / | -2.3 | 5.9 | /
Cn1c(=O)c2ccccc2n2c(=S)[nH]nc12 | 2.5 | / | 1.2 | / | /
Cc1cc2cc(CN(Cc3ccc4c(c3)OCO4)C(=O)c3cnccn3)c3nnnn3c2cc1C | -7.8 | -67.6 | -2.0 | -3.8 | -7.3% | Arbovirus anti repeat=-10.6
CCOc1ccc(-n2ccnc(SCC(=O)NCc3cccc(OC)c3)c2=O)cc1 | -16.8 | / | 0.9 | / | /
COc1ccccc1OC(=O)c1ccc(S(=O)(=O)N(C)C)cc1 | 94.2 | 0.7 | 3.0 | 13.9 | 6.2%
O=C(c1cc2c(s1)-c1ccccc1OC2)N1CCN(c2ccccn2)CC1 | 3.6 | -57.7 | -0.2 | 2.4 | 6.8%
COc1ccc(-n2cc(C(=O)O)c3ccccc3c2=O)cc1 | -6.1 | -32.6 | -2.2 | 1.9 | -2.1%
O=C(CCS(=O)(=O)c1cccc2nonc12)NCCc1ccccc1 | 76.2 | -13.0 | -4.6 | 10.4 | 9.1% | Arbovirus anti repeat=0.2
O=C(Nc1sc2c(c1C(=O)NC1CCCCC1)CCC2)c1ccco1 | / | -9.6 | 0.5 | -2.9 | -4.3%
Cc1csc(NC(=O)/C=C/c2ccco2)n1 | -2.0 | -19.2 | 2.0 | -3.2 | -1.2%
Cc1csc(NC(=O)c2nc(-c3ccccc3)n(-c3ccccc3)n2)n1 | 3.4 | -18.2 | 5.7 | -5.7 | -1.9%
COC(=O)c1ccc(C2c3[nH]c4ccccc4c3C[C@H]3C(=O)N(C4CC4)CC(=O)N23)cc1 (some centres not stated) | -2.9 | / | 1.6 | / | /
CCC(C)(C)n1nnnc1C(c1cc(OC)ccc1OC)N1CCC(C(N)=O)CC1 (configuration not stated) | -0.1 | -26.9 | -0.6 | 6.6 | 0.1%
COc1ccc(NC(=S)NC2CCN(Cc3ccccc3)CC2)cc1OC | -1.6 | / | -1.5 | -4.0 | 0.5%
O=c1cc(CN2CCOCC2)nc(C2CC2)[nH]1 | 5.9 | -25.5 | -2.3 | 4.6 | -5.0%
CC(=O)Nc1ccc(S(=O)(=O)NCCc2csc(-c3cccnc3)n2)cc1 | -5.5 | / | 0.3 | / | /
CCN1CCC(N2CCN(c3ccc(F)cc3)CC2)CC1 | 0.8 | / | 1.8 | / | /
COc1ccc(S(=O)(=O)N(C)c2ccc(C(=O)NCc3ccco3)cc2)cc1OC | -4.2 | / | -5.3 | / | /
Cc1ccc(S(=O)(=O)N2CCC(C(=O)OCC(=O)N(C)C3CCS(=O)(=O)C3)CC2)cc1C (configuration not stated) | 2.9 | / | -1.7 | / | /
O=C(Nc1ccc(Cl)cc1)Nc1ccccc1NS(=O)(=O)c1cccs1 | -3.0 | -33.0 | 8.1 | 17.9 | -5.1%
Cc1ccc(S(=O)(=O)NCCc2nnc3ccc(NCCCOC(C)C)nn23)cc1 | -3.5 | / | -2.0 | 19.9 | 0.9%
C/C(=N/NC(=O)CNC(=O)/C=C/c1ccccc1)c1ccco1 | 2.4 | / | 0.1 | / | /
O=C(CCc1ccccc1)NCC1OCCc2ccccc21 (configuration not stated) | 2.1 | / | -0.9 | -0.4 | -3.9%
CCn1c(=O)c2cc(C(=O)NCc3cccs3)sc2c2ccccc21 | 6.2 | / | / | 4.7 | 8.6% | Arbovirus anti repeat=-3.5
CCOC(=O)c1ccc(CN2Cc3ccccc3C2=O)cc1 | -2.8 | / | 1.7 | / | /
Cc1csc(NC(=O)C2CCCCC2C(=O)O)n1 (configuration not stated) | -2.5 | -41.9 | / | 1.1 | -2.2%
COCCCNc1ncnc2c1nc1n2CCCC1 | -1.7 | / | -1.1 | / | /
O/N=C(\Cc1cscn1)c1ccc(O)cc1O | 3.7 | -37.9 | -0.9 | -10.0 | -2.3%
COc1ccc(CCNC(=O)CN(c2ccccc2OC)S(C)(=O)=O)cc1OC | 1.2 | -38.1 | -1.2 | 6.3 | 4.1% | Arbovirus anti repeat=9.8
CCCCn1c(-c2cccc(Br)c2)nc2cc3[nH]c(=O)c(C(C)C)nc3cc21 | 83.7 | / | 8.3 | / | /
O=[N+]([O-])c1ccccc1Nc1ccccc1 | -0.5 | / | 2.8 | -3.1 | 0.3%
Cc1ccc(S(=O)(=O)Nc2ccc3ccccc3n2)cc1 | -1.8 | / | 4.2 | / | -2.6%
COc1ccccc1N(CC(=O)N1CCCCCC1)S(=O)(=O)c1ccc(C)cc1 | 6.8 | / | 0.6 | / | /
NC(=O)c1cn(-c2ccccc2)nc1-c1cccnc1 | 2.0 | -5.8 | -0.7 | -0.6 | -9.4%
COC(=O)[C@H](CCSC)NC(=O)Nc1ccc(S(N)(=O)=O)cc1 | -8.0 | / | 0.1 | / | -13.6%
Cc1cc(NC(=O)NC(C(F)(F)F)C(F)(F)F)no1 | 1.6 | / | -1.2 | -0.1 | -0.2%
CNc1ncc(C(=O)c2ccc(Br)cc2)s1 | / | / | 0.2 | 4.1 | 9.2%
Cc1ccccc1NC(=O)COC(=O)C1(C)CC1(Cl)Cl (configuration not stated) | -6.5 | / | -0.4 | -3.7 | 4.9%
CCOc1ccc(NC(=O)Nc2ccc(NC(C)=O)cc2)cc1 | -3.7 | / | -0.6 | 3.7 | -1.5%
Cc1ccc(NC(=O)CSc2n[nH]c(-c3ccco3)n2)c(C)c1 | -1.7 | / | 2.0 | 2.7 | -4.7%
O=c1[nH]c(Cc2cccs2)nc2scc(-c3ccc(Cl)cc3)c12 | -5.6 | / | 2.5 | / | -7.5%
O=C(N/N=C/c1ccncc1)c1ccc(NC(=O)c2ccc(Cl)cc2)cc1 | -1.3 | / | -2.0 | 2.2 | 4.5%
Cc1cn(Cc2ccccc2)c(=O)[nH]c1=O | 2.5 | 9.5 | -0.5 | 9.6 | -0.2%
Cc1cc(-c2csc(NC(=O)c3ccc(=O)n(C)n3)n2)c(C)n1CC1CCCO1 (configuration not stated) | -6.9 | -4.7 | 3.2 | -7.8 | -3.1%
COC(=O)Cc1ccc(NC(=S)NCc2ccc(F)cc2)cc1 | -7.0 | -19.0 | -3.0 | 3.1 | 6.1%
Cc1ccc(NC(=S)Nc2cc(C(=O)O)ccc2N2CC3CC(C2)c2cccc(=O)n2C3)cc1C (configuration not stated) | -6.6 | / | -4.3 | 10.6 | 4.0%
Cc1ccc(S(=O)(=O)n2cnc(C)c2)cc1 | -9.1 | / | 0.0 | / | /
Nc1ccc(Cl)c(-c2nc3ncccc3o2)c1 | -16.8 | -18.0 | -2.4 | -6.7 | -2.8%
CC(=O)c1ccc(NS(=O)(=O)c2cc(-c3cnc(C4CC4)o3)ccc2C)cc1 | -8.3 | / | 0.0 | / | /
CCCc1cc(C(=O)N2CCN(C(c3ccccc3)c3ccccc3)CC2)no1 | -5.4 | 2.6 | 11.8 | 2.5 | 4.3% | Arbovirus anti repeat=-12.3
CC(CC(=O)N1CCN(S(=O)(=O)c2ccc(Cl)cc2)CC1)n1cncn1 (configuration not stated) | 8.7 | / | 0.6 | / | /

Further results:
SMILES | Mtb betalactam | YopH inh | RecA splice inh | Arbovirus anti | Mtb H37Rv | others
CC1(C)OCC(COC(=O)Nc2cccnc2)([N+](=O)[O-])CO1 | -2.9 | / | 1.0 | 26.4 | -12.3%
O=C(CNC(=O)c1ccc(Cl)cc1)OCC(=O)c1ccccc1 | -7.0 | / | -0.2 | / | /
O=c1c2cc(N3CCOCC3)ccc2[nH]c(=S)n1Cc1ccco1 | ? | / | -7.6 | -6.8 | -1.2%
O=C(NCCc1ccc(Cl)cc1)c1ccc(OCC2CCCO2)cc1 (configuration not stated) | -1.8 | / | -0.7 | / | /
Nc1cc(N)cc(C(=O)Nc2ccc3c(c2)C(=O)NC3=O)c1 | -4.0 | / | -0.1 | / | /
O=C(NCc1cccc(Cl)c1)c1ccc2ccccc2n1 | 10.1 | / | 2.7 | / | /
COc1cccc(C(=O)Nc2ccc3[nH]ncc3c2)c1OC | -0.8 | / | 4.2 | / | /
O=C(CCN1C(=O)COc2ccccc21)NCCN1CCN(c2cccc(Cl)c2)CC1 | -5.8 | -8.6 | -1.6 | 12.1 | -2.5%
N#CCCN(Cc1cccnc1)C(=O)c1ccc(S(=O)(=O)N2CCOCC2)cc1 | 2.0 | -44.6 | -3.0 | -2.1 | 1.6%
Cc1nn(-c2ccccc2)c(Cl)c1/C=N\NC(=O)c1cncc(Br)c1 | 7.9 | -12.6 | -2.4 | 2.6 | 0.4%
CCn1ccc(C(=O)Oc2ccc(C(C)C)cc2)n1 | 4.7 | -4.6 | 10.9 | 15.5 | 20.3%
O=C(CSc1ccc2ccccc2n1)NCCC1=CCCCC1 | 3.4 | -25.2 | 0.3 | -5.1 | 3.5%
O=C(CSc1nnc(-c2ccco2)n1-c1ccccc1)N1CCN(C(=O)c2ccco2)CC1 | -8.8 | -27.8 | 0.0 | 12.4 | -5.8%
COc1cc(/C=N/NC(=O)C(N)=O)cc(OC)c1O | 4.0 | / | -10.1 | 2.3 | 6.2%
Cc1noc(C)c1S(=O)(=O)Nc1ccc(C(=O)O)cc1 | -2.1 | -49.3 | -2.0 | -6.4 | -2.7%
Cc1ccc(Nc2cc(C)nn2-c2nc(C)cc(=O)[nH]2)cc1 | 92.3 | -22.4 | 39.3* | -25.8 | <0.391µM*
COc1ccc(C2C(C(=O)N3CCCCC3)c3ccccc3C(=O)N2C)cc1 (configuration not stated) | -5.6 | -45.5 | / | -4.3 | -10.8% | Arbovirus anti repeat=0.6
CCOC(=O)CNC(=O)CSc1nc(Cc2cccs2)nc2ccccc12 | 9.9 | -10.5 | 8.0 | 10.9 | -15.6%
CCOC(=O)Cn1c(=O)cc(C)c2cccc(C)c21 | 72.5 | / | 5.6 | 1.0 | -1.4%
COC(=O)c1[nH]c(C)c(/C(O)=C2\C(=O)C(=O)N(CCN(C)C)C2c2cccs2)c1C (configuration not stated) | 4.4 | -31.4 | -1.7 | 0.5 | -6.2%

By substructure, the compounds so far with a thiophene ring, fused or not.
SMILES | Mtb betalactam | YopH inh | RecA splice inh | Arbovirus anti | Mtb H37Rv | others
O=C(c1cc2c(s1)-c1ccccc1OC2)N1CCN(c2ccccn2)CC1 | 3.6 | -57.7 | -0.2 | 2.4 | 6.8%
O=C(Nc1sc2c(c1C(=O)NC1CCCCC1)CCC2)c1ccco1 | / | -9.6 | 0.5 | -2.9 | -4.3%
O=C(Nc1ccc(Cl)cc1)Nc1ccccc1NS(=O)(=O)c1cccs1 | -3.0 | -33.0 | 8.1 | 17.9 | -5.1%
CCn1c(=O)c2cc(C(=O)NCc3cccs3)sc2c2ccccc21 | 6.2 | / | / | 4.7 | 8.6% | Arbovirus anti repeat=-3.5
O=c1[nH]c(Cc2cccs2)nc2scc(-c3ccc(Cl)cc3)c12 | -5.6 | / | 2.5 | / | -7.5%
CCOC(=O)CNC(=O)CSc1nc(Cc2cccs2)nc2ccccc12 | 9.9 | -10.5 | 8.0 | 10.9 | -15.6%
COC(=O)c1[nH]c(C)c(/C(O)=C2\C(=O)C(=O)N(CCN(C)C)C2c2cccs2)c1C (configuration not stated) | 4.4 | -31.4 | -1.7 | 0.5 | -6.2%

High-throughput results from PubChem BioAssay.
